CDC25B CDK2 inh: human CDC25B-CDK2/CyclinA binding inhibition. P30305+P24941. HTRF CDC25B-CDK2/CyclinA binding, anti-His/anti-Flag; active compounds read high. z-score (no concentration beside the values). hit rate 0.72% among 94,000. AID 1259370;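 further: score is relative to mean and SD of negative controls; strong numbers were not always called active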
TAR Tat displ: HIV-1 TAR-Tat binding disruption; HIV-1 TAR RNA, Tat peptide displacement FRET; active compounds read high; z-score (no concentration beside the values); hit rate 0.6% among 100,000;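 further: score is relative to mean and SD of negative controls; some compounds called inactive have numbers as strong as hits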
* marks the source's active call; other numbers are inactive results; . = no result given.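 How the source made its calls: active means z-score from 3 up in half or more of its runs; inactive means the rest.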

Values run as follows: CDC25B CDK2 inh | TAR Tat displ
COc1cccc(Nc2nc3ccccc3n3cnnc23)c1
    -3.67 | 0.59
O=C(Cc1ccc(Cl)cc1)NC(=S)Nc1ccc2c(c1)C(=O)c1ccccc1C2=O
    0.23 | .
Cc1nn2cnnc2c(C)c1CCC(=O)NCCc1ccco1
    . | -0.26
CCCCCC[n+]1ccccc1/C=C/c1ccc(N(C)C)cc1
    -3.33 | .
Cc1cc2nc(CSc3nnc(NC(=O)C(C)C)s3)cc(=O)n2o1
    . | 0.92
CCN1CCN(c2ncnc3c2c(-c2ccccc2)cn3-c2ccccc2)CC1
    -0.19 | 0.82
Cn1c(=O)[nH]c2cc(-c3noc(-c4cccc(Cl)c4)n3)ccc21
    . | 0.31
COCCCNC(=O)c1cnc2sc(N3CCCCC3)nn2c1=O
    . | 0.16
O=C(Cn1ncc2c(=O)oc3ccccc3c21)Nc1cc(-c2cccc(F)c2)no1
    -0.61 | 0.49
N#CC1=C(N)Oc2n[nH]c(-c3ccc4c(c3)OCO4)c2C1c1ccccc1Cl (centres undefined)
    -0.34 | 1.3
O=C(Cn1ncc2c([nH]c3ccccc32)c1=O)Nc1ccc2c(c1)OCO2
    . | 0.54
O=C(Nc1nc2sc3c(c2s1)CCCC3)c1ccccc1
    -2.78 | 0.64
O=C(CC1(O)C(=O)N(Cc2ccccc2Cl)c2ccccc21)c1ccco1 (centres undefined)
    1.02 | .
S=C(NCCCn1ccnc1)Nc1cc(Cl)ccc1Cl
    0.21 | .
O=C(c1ccccc1)c1ccc2nc(N3CCCC3)c3nncn3c2c1
    . | 1.15
CCOC(=O)c1c(NC(=O)C2CC(Cl)=CCC2C(=O)O)sc2c1CCCCC2 (centres undefined)
    -1.59 | 0.73
Cc1ccc(-c2n[nH]c(=S)c3ccccc23)cc1S(=O)(=O)N1CCN(C)CC1
    -0.36 | -0.35
CCCCCCCOc1ccc(=S)[nH]n1
    -1.17 | .
COc1ccc(/C=C/c2nn3c(-c4cccc(Cl)c4)nnc3s2)cc1
    -0.7 | 1.92
Cc1ccc(-c2cc(Nc3cc(C)ccc3O)nc(C)n2)cc1
    0.78 | -1.54
Cc1nc(Nc2nc(-c3ccc(F)cc3)cc(=O)[nH]2)nc2ccccc12
    -1.64 | 0
O=C(Nc1nonc1-c1nc2ccccc2[nH]1)c1ccncc1
    0.94 | 0.55
CC1(C)Cc2nc3oc4c(=O)n(Cc5ccccc5)cnc4c3cc2CO1
    . | -0.17
COc1ccc(-c2nc(SCCOc3ccccc3Cl)n3[nH]c(=O)cc3n2)cc1
    . | 1.87
CC1CCCCN1c1ncnc2onc(-c3ccc(Cl)cc3)c12 (centres undefined)
    -0.79 | 0.54
COC(=O)c1cc(-c2ccc(S(=O)(=O)N3CCCc4ccccc43)s2)on1
    . | -6.44
Cc1cc(NC(=O)c2nc(Nc3ccc(Cl)cc3)c3ccccc3n2)no1
    . | -0.98
Clc1ccc(CSc2nncn3c2cc2occc23)cc1
    . | 0.68
Cc1nn(C(C)C(=O)NC2CCCCC2)c(=O)c2cc3occc3n12 (centres undefined)
    -1.08 | 2.61
O=C(O)C1C2C=CC(C2)C1C(=O)N1CCc2ccccc21 (centres undefined)
    -0.98 | 1.98

Values run as follows: CDC25B CDK2 inh | TAR Tat displ
CC(NC(=O)c1cccs1)c1nc(-c2ccc(C(C)(C)C)cc2)no1 (centres undefined)
    0.95 | 2.03
O=C(NCc1ccc2c(c1)OCO2)c1ccc2c(=O)n3c(nc2c1)CCCC3
    . | 1.8
O=C(CCCc1nc(-c2cccs2)no1)NCc1ccco1
    -1.37 | 0.15
CCCNC(=O)C1Cc2cc(S(=O)(=O)N(CC)CC)ccc2N1C(C)=O (centres undefined)
    . | 1.38
COc1ccc(NC(=S)NNC(=O)c2ccc(-c3ccc(Cl)cc3)s2)c(OC)c1
    -1.28 | .
CC1CCN(c2nc(Nc3ccccc3)c3cnn(C)c3n2)CC1
    . | 1.12
CC(=O)N1CCc2cc(S(=O)(=O)CCC(=O)N3CCN(c4ccccn4)CC3)ccc21
    -2.33 | .
O=C(NCC1CC1)c1ccccc1NS(=O)(=O)c1cccc2nonc12
    0.05 | .
O=C(c1cnn(-c2cccc(F)c2)c1-n1cccc1)N1CCCC1
    . | 0.13
Nc1c(C(=O)NCc2ccccc2)nnn1Cc1ccc(Br)cc1F
    -0.6 | .
OC1CCN(C(=S)NC2CCCCCCC2)CC1
    0.46 | .
COc1cc2c(c(OC)c1)C(=O)O[C@@H](C)CCCC(=O)CCC/C=C/2
    0.43 | 0.41
O=C(Nc1ccc(F)cc1)c1nn(-c2ccccc2)ccc1=O
    -1.25 | 0.03
N#Cc1cnn(-c2ccc(C(F)(F)F)cc2[N+](=O)[O-])c1N
    -0.48 | .
CCN1CCCC1CNC(=O)Cn1ncc2c(=O)oc3ccc(C)cc3c21 (centres undefined)
    -0.22 | .
CC(C)C(C(=O)NCc1ccccn1)N1Cc2ccccc2C1=O (centres undefined)
    . | -0.72
C#Cc1cccc(NC(=O)CSc2nnc(-c3ccc(C(F)(F)F)cn3)o2)c1
    -0.53 | .
CCc1ccc2oc(C(=O)NC3CCS(=O)(=O)C3)cc(=O)c2c1 (centres undefined)
    -1.33 | 1.47
COc1ccc(C2C(=O)N(C3CCCCC3)CC(=O)N2C2CCCCC2)cc1 (centres undefined)
    -1.46 | .
CCN(CC)c1ccc(C2C(C(=O)OC(C)C)=C(C)NC3=C2C(=O)CC(C)(C)C3)cc1 (centres undefined)
    -2.09 | 1.55
O=S(=O)(c1ccccc1C(F)(F)F)N1C=CC(C(F)(F)F)=NCC1
    -0.49 | .
CCOc1cc(C2CC(=O)Nc3c2c(=O)nc(SCC)n3C)ccc1O (centres undefined)
    -0.09 | -0.81
CC(C)Sc1ncc(Cl)c(C(=O)Nc2nnc(C(C)C)s2)n1
    -0.17 | 0.43
Cc1ccc(Sc2ccc(Cl)nn2)cc1
    -1.12 | 0.49
COc1ccc(C2CC(c3ccc(C(C)C)cc3)n3nc(N)nc3N2)cc1 (centres undefined)
    -1.62 | -1.32
CCCCCn1c(CN2CCN(CC)CC2)nc2c1c(=O)[nH]c(=O)n2C
    -0.64 | 3.01
O=C(NCc1nnc(SCC(=O)N2CCc3ccccc32)n1-c1ccccc1)c1cccs1
    -1.35 | 2.54
CCOc1ccc(Oc2nc(NCC(C)C)nc(NC(C)(C)C)n2)nn1
    0.49 | 1.24
CCC1=NN(C(=O)c2ccc(C)o2)C(O)(C(F)(F)F)C1 (centres undefined)
    -0.27 | .
Cc1cc(OC(=O)c2nc(S(C)(=O)=O)ncc2Cl)ccc1Cl
    -2.61 | -1.13

7 compounds drawn at random from those above, as already listed:
Values run as follows: CDC25B CDK2 inh | TAR Tat displ
O=S(=O)(c1ccccc1C(F)(F)F)N1C=CC(C(F)(F)F)=NCC1
    -0.49 | .
CCN(CC)c1ccc(C2C(C(=O)OC(C)C)=C(C)NC3=C2C(=O)CC(C)(C)C3)cc1 (centres undefined)
    -2.09 | 1.55
OC1CCN(C(=S)NC2CCCCCCC2)CC1
    0.46 | .
Cc1cc(OC(=O)c2nc(S(C)(=O)=O)ncc2Cl)ccc1Cl
    -2.61 | -1.13
O=C(NCc1nnc(SCC(=O)N2CCc3ccccc32)n1-c1ccccc1)c1cccs1
    -1.35 | 2.54
O=C(CC1(O)C(=O)N(Cc2ccccc2Cl)c2ccccc21)c1ccco1 (centres undefined)
    1.02 | .
Cc1nn2cnnc2c(C)c1CCC(=O)NCCc1ccco1
    . | -0.26

Remaining list, next part:
compound	CDC25B CDK2 inh	TAR Tat displ
CC(=O)OCC(=O)c1ccc2ccn(C(C)=O)c2c1	-1.96	-0.33
Cc1ccc(S(=O)(=O)Nc2cccc(S(N)(=O)=O)c2)cc1	-0.4	.
CN1C(=O)Cc2cc(S(=O)(=O)CCC(=O)N3CCc4ccccc43)ccc21	.	0.04
CCCN1C(=O)c2cc(C(=O)NCCOC)nn2CC1(C)C(=O)NC1CCCC1 (centres undefined)	.	0.98
COC(=O)c1cc(S(=O)(=O)Nc2cccc(Cl)c2)cn1C	-0.37	0.85
Cc1n[nH]c(C)c1Sc1ccccc1N	-1.54	-0.55
O=C1CC(c2nc3ccccc3[nH]2)CN1c1ccc(F)cc1 (centres undefined)	-2.35	-0.17
CCOc1cc(S(=O)(=O)Nc2cc(C)ccn2)ccc1Cl	-1.42	-0.97
O=C(NCc1cccs1)c1nc2ncccn2n1	-0.98	-0.5
Clc1cccc(C=Nc2ccc(Oc3cncc(Cl)c3)nc2)c1	0.32	.
O=C(O)CCCNc1nc(Cl)nc(N2CCOCC2)n1	0.42	1.73
Cc1cc(=O)n2nc(N3CCCC3C(=O)NCc3ccc4c(c3)OCO4)sc2n1 (centres undefined)	1.45	1.38
Cc1ccnc(NC(c2ccccc2O)c2oc(CO)cc(=O)c2O)c1 (centres undefined)	-0.72	.
O=C(CSc1nc2c(c(C(F)(F)F)n1)CCc1ccccc1-2)NCCCN1CCOCC1	-1.37	1.66
CCn1c(SCc2cc(=O)n3ccccc3n2)nc(=O)c2c(C(=O)OC)cc(C3CC3)nc21	.	0.18
O=C1CC(=O)Nc2cc(S(=O)(=O)Nc3cccc(Br)c3)ccc2N1	.	1.25
COc1cc2c(cc1OC)C(C(=O)NCc1ccccn1)C1c3ccccc3CCN1C2=O (centres undefined)	-0.21	.
O=C(NCc1cccnc1)C1CCN(S(=O)(=O)c2cccs2)CC1	0.31	.
Clc1ccc(CN2CCN(C3CCCCCC3)CC2)cc1	-0.99	.
Cc1cc(C)cc(NC(=O)CSc2nnc(Cc3c(C)nc4cc(C)ccn4c3=O)n2C)c1	-1.03	0.68

Three compounds from above, sorted by heavy-atom count, ascending:
compound	CDC25B CDK2 inh	TAR Tat displ
O=C(O)CCCNc1nc(Cl)nc(N2CCOCC2)n1	0.42	1.73
Clc1cccc(C=Nc2ccc(Oc3cncc(Cl)c3)nc2)c1	0.32	.
CCn1c(SCc2cc(=O)n3ccccc3n2)nc(=O)c2c(C(=O)OC)cc(C3CC3)nc21	.	0.18

(more compounds)
compound	CDC25B CDK2 inh	TAR Tat displ
CC1CCCCN1c1nnc(N)s1 (centres undefined)	.	2.38
COc1ccc(OC)c(C2Nc3c(C)cc(C)cc3-c3cc(C)nn32)c1 (centres undefined)	-1.54	0.26
COc1ccc(Cc2nc(-c3ccc(OC)c(OC)c3)no2)cc1	-1.43	.
Fc1cccc(CN2CCc3nc(Nc4ccc5c(c4)OCO5)ncc3C2)c1F	.	1.6
Cc1ccc(C2CC(C(F)(F)F)n3nc(C(=O)NC4CCCCC4)cc3N2)cc1 (centres undefined)	.	2.98
Cc1ccc(NS(=O)(=O)c2cccc3cccnc23)cc1	-0.21	.
CCOc1ccccc1N1CN(Cc2ccco2)CNC1=S	-0.53	.
CC12c3ccccc3C(c3ccccc31)C1C(=O)N(Cc3ccccc3)C(=O)C12 (centres undefined)	-1.43	1.79
O=C(CCSc1ccccc1)c1ccc(Cl)s1	-0.71	.
COc1cccc(-c2nnc(-c3ccccc3[N+](=O)[O-])o2)c1	-0.08	.
CC(C)Oc1ccc(-c2nc3c(C#N)c[nH]n3c2NC2CCCC2)cc1	-0.56	-0.24
Cc1nc2c(-c3ccccc3)c(C)nn2c(C)c1CCC(=O)NC(C)CCc1ccco1 (centres undefined)	-0.95	.
Cc1c(S(=O)(=O)c2ccc(Cl)cc2)csc1S(=O)(=O)N1CCCCC1	-1.41	.
NC(=O)c1oc2ccccc2c1NC(=O)C(=O)O	-1.17	-1.48
O=C(Cc1ccccc1)c1ccc(O)cc1	-1.3	.
Cc1nn(-c2nc3ccccc3[nH]2)c2c1C(c1c(F)cccc1Cl)CC(=O)N2 (centres undefined)	.	1.21
CC(C)Oc1ccc(CNS(=O)(=O)c2ccc3c(c2)C(C)(C)C(=O)N3C)cc1	.	1.17
Cc1ccc2oc(C(=O)Nc3nnc(C)s3)cc(=O)c2c1	0.16	1.8
Cc1c(NC(=S)Nc2ccccc2)c(=O)n(-c2ccccc2)n1C	-2.02	.
CSc1cccc(NC(=O)C(C)CS(=O)(=O)c2ccc3c(c2)NC(=O)C(C)S3)c1 (centres undefined)	.	1.77

compound	CDC25B CDK2 inh	TAR Tat displ
Cc1ccc(NC(=O)N2CCn3cccc3C2C)cc1C (centres undefined)	.	-5.95
COc1ccc(Br)c(-c2nnc(-c3ccc(F)cc3)o2)c1	-6.4	2.06
CCn1c(SCc2ccc(C(=O)O)o2)nnc1-c1ccc(Cl)cc1	0.75	-0.57
CN(C)c1cc(N2CCN(C(=O)c3ccco3)CC2)c2c3c(onc13)-c1ccccc1C2=O	-2.6	-0.53
Cc1cc(C(=O)NC(C)(C)C)on1	-0.93	1.9
Cc1ccn2cc(CCNC(=O)C3CCCCC3)nc2c1	-0.33	.
Cc1nn(-c2ccc(Br)cc2)cc1-c1noc(C(=O)NCCN2CCCC2)n1	.	0.15
CCOc1ccc(N2C(=O)C3C4c5ccccc5C(C(C)=O)(c5ccccc54)C3C2=O)cc1 (centres undefined)	-0.19	.
CC1CN(C(=O)NCCSCc2cccc(C(F)(F)F)c2)CC(C)O1 (centres undefined)	-1.63	.
Fc1cccc(-c2nnc3ccc(SCc4cccnc4)nn23)c1	-1.09	.
O=C1/C(=C\c2ccccn2)SC(=S)N1CCc1ccc(Cl)cc1	-2.54	.
Cc1c(C(=O)O)ccc2c1N[C@@H](c1cccc(C(F)(F)F)c1)[C@H]1CC=C[C@@H]21	-0.95	.
O=C(c1cc(F)c(F)cc1Cl)n1cccn1	-0.98	-0.12
N#Cc1c2ccccc2cn1Cc1cccc(Cl)c1	-0.54	.
CCC(C(=O)NC1CCCCCC1)n1nc(C)n2c(cc3sccc32)c1=O (centres undefined)	-1.56	.
CCn1c2ccccc2c2nnc(N3CCN(Cc4ccccc4)CC3)nc21	-1.36	0.08
Cc1nc(-n2cccc2)sc1C(=O)NCc1c(C)noc1C	.	-3.09
COCCOC(=O)c1c(C)oc2ccc(OC(=O)c3ccco3)cc12	-0.91	0.04
